Screening results as filed in PubChem.
YB-1 expression – inhibitors of YB-1 gene expression, primary screen, cell-based, fluorescence. U2OS, qRT-PCR YB-1 vs CDIP delta delta Cp, 16 h; active compounds read high; zero = DMSO, each unit about twofold. delta delta Cp (YB-1 minus CDIP) (concentration not given with the values). hit rate 0.37% among 30,000. AID 434959, 2010;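 active = delta delta Cp rounded down to an integer at or above 3, about 3 SD of DMSO wells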;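 also: higher means less YB-1 transcript or more CDIP transcript relative to DMSO; stock transfer was 100 nL into about 100 µL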
* hit, by the source's call.

structure	YB-1 expression
C[C@@H]1CN([C@@H](C)CO)C(=O)CCCn2nncc2CO[C@H]1CN(C)S(=O)(=O)c1ccc2c(c1)OCCCO2	0.06
O=C(Nc1ccccc1O)C1=C[C@H](c2coc3ccccc3c2=O)C[C@H](OCCCCO)O1	0.024
COc1ccc(NC(=O)N(C)C[C@@H]2Oc3ncc(C#CCN(C)C)cc3C(=O)N([C@H](C)CO)C[C@@H]2C)cc1	0.24
Cc1ccc(S(=O)(=O)N(C)C[C@H]2OCc3cnnn3CCCC(=O)N([C@@H](C)CO)C[C@@H]2C)cc1	-0.011
Cc1ccc(S(=O)(=O)N(C)C[C@@H]2Oc3ncc(-c4cccc(F)c4)cc3C(=O)N([C@H](C)CO)C[C@@H]2C)cc1	-0.036
Cc1noc(C)c1S(=O)(=O)N(C)C[C@@H]1OCc2cnnn2CCCC(=O)N([C@@H](C)CO)C[C@@H]1C	-0.084
COC(=O)N(C)C[C@H]1OCc2cnnn2CCCC(=O)N([C@H](C)CO)C[C@H]1C	-0.3
Cc1noc(C)c1NC(=O)N(C)C[C@H]1OCc2cnnn2CCCC(=O)N([C@@H](C)CO)C[C@@H]1C	-0.13
CCCC(O)C#Cc1cnc2c(c1)C(=O)N([C@H](C)CO)C[C@H](C)[C@H](CN(C)Cc1ccc(F)cc1)O2 (stereo not given in full)	0.049
COc1cccc(-c2cnc3c(c2)C(=O)N([C@H](C)CO)C[C@H](C)[C@H](CN(C)S(=O)(=O)c2ccccc2)O3)c1	0.24
Cc1cccc(S(=O)(=O)N(C)C[C@H]2OCc3cnnn3CCCC(=O)N([C@H](C)CO)C[C@@H]2C)c1	0.0021
C[C@@H]1CN([C@H](C)CO)C(=O)CCCn2cc(nn2)CO[C@H]1CN(C)S(=O)(=O)c1ccc(Oc2ccccc2)cc1	0.25
COc1ccc(NC(=O)N(C)C[C@@H]2OCc3cnnn3CCCC(=O)N([C@H](C)CO)C[C@H]2C)c(OC)c1	0.073
C[C@H]1CN([C@@H](C)CO)C(=O)CCCn2cc(nn2)CO[C@@H]1CN(C)S(=O)(=O)c1ccc(Oc2ccccc2)nc1	0.087
C[C@H](CO)N1C[C@H](C)[C@H](CN(C)S(=O)(=O)c2ccc(F)cc2)Oc2ncc(C#Cc3ccc(C(F)(F)F)cc3)cc2C1=O	-0.23
COC(=O)CCCCCCC(=O)N/N=C/c1cc(OC)c(OC)cc1Br	-0.52
COC(=O)CCCCCCC(=O)N/N=C/c1cc(F)ccc1O	0.52
COc1cccc(NC(=O)N(C)C[C@H]2OCc3cnnn3CCCC(=O)N([C@H](C)CO)C[C@H]2C)c1	0.035
COc1ccc([Si](C)(C)[C@H]2[C@H](CCn3cc(CCO)nn3)O[C@@]3(C(=O)N(Cc4ccc(N5C(=O)c6cccc7cccc5c67)cc4)c4ccccc43)[C@@H]2C)cc1	-0.29
O=C(CCCCCC(=O)Nc1ccccc1O)N/N=C/c1ccc(O)cc1	0.13
COC(=O)CCCCCCC(=O)N/N=C/c1ccco1	0.35
COC(=O)C(CC#Cc1ccc2c(c1)[C@]1(C(=O)N2)[C@H](c2ccc(OCCO)cc2)N2[C@H](c3ccccc3)[C@H](c3ccccc3)OC(=O)[C@H]2[C@@H]1C(=O)N1CCN(c2ncccn2)CC1)C(=O)OC	-0.17
O=C1O[C@H](c2ccccc2)[C@H](c2ccccc2)N2[C@H]1[C@@H](C(=O)Nc1nc3ccccc3s1)[C@]1(C(=O)Nc3ccc(C#CCCO)cc31)[C@H]2c1ccc(OCCO)cc1	-0.23
O=S(=O)(c1cccc(F)c1)N1CCN(Cc2ccc(OCCO)cc2)CC1	0.013
COc1cc(O)cc(OC)c1/C=N/NC(=O)CCCCCCC(=O)Nc1ccccc1O	-0.22
O=S(=O)(N[C@@H]1CCCN(Cc2ccc(OCCO)cc2)C1)c1cccc(F)c1	-0.18
O=C(O)C1=C[C@H](c2csc3ccccc23)C[C@H](OCCCCO)O1	-0.065
CN(CCO)c1ccc(/C=N/NC(=O)c2cccc(C(=O)NO)c2)cc1	-0.021
C[C@H](CO)N1C[C@H](C)[C@H](CN(C)S(=O)(=O)c2ccc(C#N)cc2)Oc2ncc(-c3cccc(F)c3)cc2C1=O	0.4
O=[N+]([O-])c1ccccc1S(=O)(=O)N1CCN(Cc2cccc(OCCO)c2)CC1	-0.41

> O=C(N/N=C/c1ccccc1Cl)c1ccccn1
  YB-1 expression: -0.31

> O=C(O)CCCCCCC(=O)N/N=C/c1ccc[nH]1
  YB-1 expression: 0.32

> O=C1N[C@@H](Cc2ccccc2)C(=O)N2[C@@H]1C[C@@H](C(=O)NCc1ccc(F)cc1)[C@H]2c1ccc(O)cc1
  YB-1 expression: 0.024

> C[C@@H]1CN([C@H](C)CO)C(=O)CCCn2cc(nn2)CO[C@@H]1CN(C)C(=O)Nc1ccc(-c2cccs2)cc1
  YB-1 expression: -0.27

> COc1ccc(NC(=O)N(C)C[C@@H]2OCc3cnnn3CCCC(=O)N([C@@H](C)CO)C[C@@H]2C)c(OC)c1
  YB-1 expression: -0.33

> Cc1ccc(S(=O)(=O)N(C)C[C@H]2OCc3cn(nn3)CCCC(=O)N([C@H](C)CO)C[C@H]2C)cc1
  YB-1 expression: -0.47

> COc1ccc([Si](C)(C)[C@H]2[C@H](CCn3cc(CCO)nn3)O[C@@]3(C(=O)N(C)c4c(Br)cc(C)cc43)[C@@H]2C)cc1
  YB-1 expression: -0.028

> C=CC[C@@]12N=C(c3ccc(OCCCO)cc3)O[C@@H]1c1ccccc1CN(C(=O)c1ccccc1)C2=O
  YB-1 expression: 0.1

> C[C@H](CO)N1C[C@H](C)[C@H](CN(C)Cc2ccc3c(c2)OCO3)Oc2ncc(Br)cc2C1=O
  YB-1 expression: 0.2

> C[C@H](CO)N1C[C@H](C)[C@@H](CN(C)Cc2cccc(C(=O)O)c2)OCc2cnnn2CCCC1=O
  YB-1 expression: 0.25

> C[C@H](CO)N1C[C@H](C)[C@H](CN(C)Cc2cccc(C(F)(F)F)c2)OCc2cnnn2CCCC1=O
  YB-1 expression: 0.32

> Cc1nnc(Sc2ccc(/C=N/NC(=O)c3ccccc3O)o2)n1C
  YB-1 expression: -0.2

> C=CCN1C(=O)[C@@]2(O[C@@H](CCO)[C@H]([Si](C)(C)c3ccc(OC)cc3)[C@H]2C)c2cc(N3CCC3=O)ccc21
  YB-1 expression: -0.24

> C[C@@H]1CN([C@@H](C)CO)C(=O)CCCn2cc(nn2)CO[C@@H]1CN(C)S(=O)(=O)c1ccc(-n2cccn2)cc1
  YB-1 expression: 0.24

> C[C@H](CO)N1C[C@H](C)[C@H](CN(C)Cc2ccccc2C(=O)O)OCc2cnnn2CCCC1=O
  YB-1 expression: -0.43

> COCCOC(=O)N1C(=O)[C@@]2(c3cc(C#CC4(O)CCCCCC4)ccc31)[C@H](c1ccccc1OCCO)N1[C@H](c3ccccc3)[C@H](c3ccccc3)OC(=O)[C@H]1[C@@H]2C(N)=O
  YB-1 expression: 0.023

> COCCOC(=O)N1C(=O)[C@@]2(c3cc(C#Cc4ccc(OC)cc4)ccc31)[C@H](C(=O)NC[C@H](O)c1ccccc1)[C@H]1C(=O)O[C@H](c3ccccc3)[C@H](c3ccccc3)N1[C@@H]2c1ccc(OCCO)cc1
  YB-1 expression: 0.24

> COc1ccc(NC(=O)O[C@@H](c2ccc(OCCO)cc2)[C@H](CCO)OC)cc1
  YB-1 expression: 0.36

> O=C1O[C@@H](c2ccccc2)[C@@H](c2ccccc2)N2[C@@H](c3ccc(OCCO)cc3)[C@]3(C(=O)Nc4ccc(C#CC5=CCCCC5)cc43)[C@@H](C(=O)O)[C@H]12
  YB-1 expression: -0.24

> COC(=O)[C@@]1(Cc2ccccc2N=[N+]=[N-])COC(c2ccc(OCCCO)cc2)=N1
  YB-1 expression: 0.53

> C[C@H]1CN([C@@H](C)CO)C(=O)CCCn2nncc2CO[C@H]1CN(C)C(=O)Nc1ccccc1C(F)(F)F
  YB-1 expression: -0.15

> O=C(N/N=C/c1ccc(Oc2ccccc2)cc1)c1ccccn1
  YB-1 expression: -0.42

> O=C(O)C1=C[C@H](c2coc3ccccc3c2=O)C[C@H](OCCCCO)O1
  YB-1 expression: -0.3

> COC(=O)CCCCCCC(=O)N/N=C/c1ccc(Br)s1
  YB-1 expression: -0.51

> COCCCNC(=O)[C@@]1(C)c2ccccc2C(=O)N(Cc2cc(F)cc(C(F)(F)F)c2)[C@H]1c1ccc(CO)cc1
  YB-1 expression: -1.2

Ordered by heavy-atom count (lowest first): some entries from above
> Cc1nnc(Sc2ccc(/C=N/NC(=O)c3ccccc3O)o2)n1C
  YB-1 expression: -0.2

> COC(=O)[C@@]1(Cc2ccccc2N=[N+]=[N-])COC(c2ccc(OCCCO)cc2)=N1
  YB-1 expression: 0.53

> C[C@H](CO)N1C[C@H](C)[C@H](CN(C)Cc2ccc3c(c2)OCO3)Oc2ncc(Br)cc2C1=O
  YB-1 expression: 0.2

> O=C1N[C@@H](Cc2ccccc2)C(=O)N2[C@@H]1C[C@@H](C(=O)NCc1ccc(F)cc1)[C@H]2c1ccc(O)cc1
  YB-1 expression: 0.024

Further results:
> O=C(N/N=C/C1CCCCC1)c1ccccc1O
  YB-1 expression: -0.43

> COC(=O)CCCCCCC(=O)N/N=C/c1ccc(OCC(N)=O)cc1
  YB-1 expression: -0.31

> COc1ccc(S(=O)(=O)N(C)C[C@H]2OCc3cn(nn3)CCCC(=O)N([C@@H](C)CO)C[C@H]2C)cc1
  YB-1 expression: -0.86

> O=C(CCCCCCC(=O)Nc1ccccc1O)N=NC=C1C=CN(O)C=C1
  YB-1 expression: -0.061

> Cc1ccccc1CN(C)C[C@H]1OCc2cn(nn2)CCCC(=O)N([C@@H](C)CO)C[C@H]1C
  YB-1 expression: -0.14

> C[C@H](CO)N1C[C@H](C)[C@@H](CN(C)Cc2ccc(C(F)(F)F)cc2)OCc2cn(nn2)CCCC1=O
  YB-1 expression: 0.0036

> COC(=O)C(CC#Cc1ccc2c(c1)[C@]1(C(=O)N2)[C@H](C(=O)N2CCCCCCC2)[C@H]2C(=O)O[C@H](c3ccccc3)[C@H](c3ccccc3)N2[C@@H]1c1ccccc1OCCO)C(=O)OC
  YB-1 expression: -0.41

> COC(=O)C(CC#Cc1ccc2c(c1)[C@]1(C(=O)N2)[C@H](c2ccc(O)cc2)N2[C@H](c3ccccc3)[C@H](c3ccccc3)OC(=O)[C@H]2[C@@H]1C(=O)O)C(=O)OC
  YB-1 expression: 0.027

> C[C@@H]1CN([C@H](C)CO)C(=O)CCCn2cc(nn2)CO[C@H]1CN(C)Cc1ccc2c(c1)OCCO2
  YB-1 expression: -0.063

> O=C(CCCCCCC(=O)Nc1ccccc1O)N/N=C/c1ccc(O)cc1Br
  YB-1 expression: -0.09

> O=C(NO)c1ccc(C(=O)N/N=C/c2ccc([N+](=O)[O-])s2)cc1
  YB-1 expression: -0.029

> C=CCN1C(=O)[C@]2(O[C@H](CCO)[C@@H]([Si](C)(C)c3ccc(OC)cc3)[C@@H]2C)c2cc(NC(=O)[C@H](C)O)ccc21
  YB-1 expression: -0.73

> CC(C)(C)OC(=O)Nc1cccc(/C=N/NC(=O)CCCCCCC(=O)Nc2ccccc2O)c1
  YB-1 expression: 0.032

> O=C(CCCCCCC(=O)Nc1ccccc1O)N/N=C/c1c(F)c(F)c(F)c(F)c1F
  YB-1 expression: -0.27

> O=C1O[C@H](c2ccccc2)[C@H](c2ccccc2)N2[C@H]1[C@@H](C(=O)O)[C@]1(C(=O)Nc3ccc(C#CCCO)cc31)[C@H]2c1ccc(O)cc1
  YB-1 expression: -0.0073

> O=C(N/N=C/c1cc(O)ccc1Br)c1ccccc1O
  YB-1 expression: 0.029

> C[C@@H]1CN([C@H](C)CO)C(=O)CCCn2cc(nn2)CO[C@@H]1CN(C)C(=O)Nc1ccc2c(c1)OCCO2
  YB-1 expression: -0.14

> CN(C)CCCN1C(=O)[C@@]2(Cc3ccccc31)c1ccccc1C(=O)N(Cc1ccccc1)[C@H]2c1ccc(CO)cc1
  YB-1 expression: 0.16

> COc1cc2c(cc1OC)CN(C(=O)[C@@H]1[C@H]3C(=O)O[C@H](c4ccccc4)[C@H](c4ccccc4)N3[C@H](c3ccc(O)cc3)[C@@]13C(=O)Nc1ccc(C#CCCO)cc13)CC2
  YB-1 expression: 0.31

> O=C1N(CCS(=O)(=O)c2ccccc2)Cc2ccccc2[C@H]2OC(c3ccc(OCCCO)cc3)=N[C@@]12Cc1ccccc1
  YB-1 expression: -0.43

> COc1ccc(CN(C)C[C@H]2OCc3cn(nn3)CCCC(=O)N([C@H](C)CO)C[C@@H]2C)cc1
  YB-1 expression: -0.23

> COC(=O)C(CC#Cc1ccc2c(c1)[C@]1(C(=O)N2)[C@H](C(=O)N2CCCCCCC2)[C@H]2C(=O)O[C@H](c3ccccc3)[C@H](c3ccccc3)N2[C@@H]1c1ccc(OCCO)cc1)C(=O)OC
  YB-1 expression: -0.1

> O=C1O[C@@H](c2ccccc2)[C@@H](c2ccccc2)N2[C@@H](c3ccccc3OCCO)[C@]3(C(=O)Nc4ccccc43)[C@@H](C(=O)N3CCN(c4ncccn4)CC3)[C@H]12
  YB-1 expression: 0.33

> C[C@H]1CN([C@@H](C)CO)C(=O)CCCn2nncc2CO[C@H]1CN(C)Cc1cccc(O)c1
  YB-1 expression: -0.24

Quoted at random: 6 compounds from above.
> CC(C)(C)OC(=O)Nc1cccc(/C=N/NC(=O)CCCCCCC(=O)Nc2ccccc2O)c1
  YB-1 expression: 0.032

> O=C(N/N=C/c1cc(O)ccc1Br)c1ccccc1O
  YB-1 expression: 0.029

> O=C(CCCCCCC(=O)Nc1ccccc1O)N/N=C/c1c(F)c(F)c(F)c(F)c1F
  YB-1 expression: -0.27

> O=C(NO)c1ccc(C(=O)N/N=C/c2ccc([N+](=O)[O-])s2)cc1
  YB-1 expression: -0.029

> Cc1ccccc1CN(C)C[C@H]1OCc2cn(nn2)CCCC(=O)N([C@@H](C)CO)C[C@H]1C
  YB-1 expression: -0.14

> COC(=O)C(CC#Cc1ccc2c(c1)[C@]1(C(=O)N2)[C@H](c2ccc(O)cc2)N2[C@H](c3ccccc3)[C@H](c3ccccc3)OC(=O)[C@H]2[C@@H]1C(=O)O)C(=O)OC
  YB-1 expression: 0.027

An excerpt. The share of hits here may be higher or lower than overall.
